Ecoli growth: E. coli growth inhibition, primary screen, OD600; Escherichia coli growth, 23 h; hits give low values; OD600 absorbance (concentration not given with the values); 0.21% of 330,000 active;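 active = OD600 absorbance below the run mean of sample wells minus 3.6 SD, in any replicate, cut at about 0.56 in these data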;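 also: stock transfer was 300 nL into about 60 µL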
Vif A3G: inhibitors of Vif binding to APOBEC3G peptide, primary screen, biochemical, TR-FRET, GST-Vif 1-94, biotin-A3G peptide, dose response retest (AID 1117319) | TR-FRET GST-Vif / biotin-A3G peptide binding; higher % means a stronger effect; test concentration not given here; strong numbers were not always called active | 0.57% of 260,000 active | one-dose inhibition, %; IC50 in µM for titrated hits | Virion infectivity factor (Human immunodeficiency virus type 1 group M subtype B (isolate …;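 active = above the screen mean plus three standard deviations and confirmed in dose response; inconclusive = results disagree or hit not tested in dose response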;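 also: Vif residues 1-94 fused to GST binding biotinylated APOBEC3G peptide 110-148; 0% = full assay without inhibitor and 100% = GST in place of GST-Vif; retest series ran down from 100 µM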
B2AR ag: beta2AR agonists driving receptor internalization, primary screen, cell-based, FAP fluorogen, flow cytometry. Am2.2-beta2AR cells; reference of the scale not given here. 0.43% of 340,000 active. response, % (test concentration not listed). AID 504454, 2011;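 active = response above a set limit, near 3 SD of response in nonfluorescent compounds, cut at about 42% in these data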;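 also: stock transfer was 100 nL into about 11 µL; a reference agonist was the positive control; negative values mostly stem from fluorescent compounds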
Target sequence (P07550 whole entry, looked up): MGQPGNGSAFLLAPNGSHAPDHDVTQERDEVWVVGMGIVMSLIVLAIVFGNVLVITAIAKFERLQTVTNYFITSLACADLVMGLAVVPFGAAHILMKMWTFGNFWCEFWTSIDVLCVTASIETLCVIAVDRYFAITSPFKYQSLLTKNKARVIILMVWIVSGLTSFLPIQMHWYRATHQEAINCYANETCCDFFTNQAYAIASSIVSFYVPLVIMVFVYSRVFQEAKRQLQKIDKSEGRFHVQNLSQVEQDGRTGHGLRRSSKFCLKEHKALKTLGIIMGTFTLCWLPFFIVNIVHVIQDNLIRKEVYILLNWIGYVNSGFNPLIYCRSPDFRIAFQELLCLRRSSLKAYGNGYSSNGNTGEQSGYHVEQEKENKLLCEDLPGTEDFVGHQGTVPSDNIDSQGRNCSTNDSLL
HNF4A DNA FP: change in binding of human HNF4A to DNA, primary screen, biochemical, fluorescence polarization, FITC-DNA. activity change, % at 10 µM. 0.3% of 360,000 active. 1 h; in the data active = activity change above about 30%, passing the limit was not always enough;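 also: controls were the assay level and a saturating level of protein; the project sought stronger binding though the title names inhibitors; some compounds called inactive have numbers as strong as hits; positive values seem to mean higher polarization but the record does not say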
Target sequence (P41235 whole entry, looked up): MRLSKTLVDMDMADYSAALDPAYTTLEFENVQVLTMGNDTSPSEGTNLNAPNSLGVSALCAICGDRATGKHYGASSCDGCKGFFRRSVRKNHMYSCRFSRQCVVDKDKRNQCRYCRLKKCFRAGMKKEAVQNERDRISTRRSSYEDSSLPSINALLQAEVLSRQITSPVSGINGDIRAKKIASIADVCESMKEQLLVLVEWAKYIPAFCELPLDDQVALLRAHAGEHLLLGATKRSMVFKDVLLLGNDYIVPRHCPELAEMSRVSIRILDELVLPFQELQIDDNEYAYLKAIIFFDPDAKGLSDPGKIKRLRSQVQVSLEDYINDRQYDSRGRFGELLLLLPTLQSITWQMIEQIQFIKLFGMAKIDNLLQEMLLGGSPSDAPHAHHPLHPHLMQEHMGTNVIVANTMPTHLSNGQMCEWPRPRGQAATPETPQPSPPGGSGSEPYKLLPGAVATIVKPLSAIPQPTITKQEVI
UCH37 DUB inh: inhibitors of human UCH37 deubiquitinase, primary screen, biochemical, Ub-AMC cleavage, fluorescence; AID 588478, 2011; inhibition, % (test concentration not listed); purified proteasome/UCH37; 0.33% of 330,000 active; Ubiquitin carboxyl-terminal hydrolase isozyme L5 (Homo sapiens), Q9Y5K5;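 active = mean of two replicates above 20%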;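 also: 0% = compound-free wells with enzyme and 100% = wells lacking proteasome; stock transfer was 100 nL into about 20 µL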
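system = Proteasome-associated human UCH37 deubiquitinase | amount = 0.15 nM proteasome as dispensed | medium = pH 7.4 Tris-HCl (50 mM) with ovalbumin, ATP-MgCl2, DTT | incubation = 30 min preincubation with enzyme, 25 min cleavage at room temperature | detection = AMC fluorescence 355/460 nm | read-out basis = percent inhibition | controls = no-proteasome and no-compound wells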
LANA-H2A inh: blockers of LANA interaction with H2A/H2B – biochemical, FP readout, HTS, primary screen; Protein LANA1 (Human herpesvirus 8 type P (isolate GK18)), Q9QR71; cell-free LANA-H2A/H2B peptide, fluorescence polarization; inhibition, % (concentration not given with the values); 0.6% of 320,000 active; in the data active = inhibition mostly above about 10%, no sharp cut-off; inactive = mostly below about 6.7%;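 also: stock transfer was 7.5 nL into about 10 µL; 0% = median of vehicle wells and 100% = median of positive control wells; one replicate is shown; the record names a cut of 25% in any replicate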
Bfl-1 A1 inh: caspase 3/7 activation in MEF A1-2A-BIM cells, primary screen, A1 inhibitor project, cell-based, luminescence, HTS | Caspase-Glo 3/7 luminescence, 3 h; percent of clofoctol response, vehicle zero | caspase activation, % (no concentration beside the values) | 0.066% of 330,000 active | AID 2462, 2010;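 active = over half of replicate activation scores above 10%, or exactly half above 10 with the replicate mean above 10; inconclusive = replicate mean below 10 yet half the replicates above 10; inactive = over half of replicates below 10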;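 also: wells of about 30 µL received 50 nL stock; many hits fall short of the cut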
An asterisk follows results filed as active; ? = inconclusive; . = no result given; & = joins results of further samples. Not a hit list; 2.1% or so of the library scored in one or more.

SMILES	Ecoli growth	Vif A3G	B2AR ag	HNF4A DNA FP	UCH37 DUB inh	LANA-H2A inh	Bfl-1 A1 inh
Cc1cc(C)c(NC(=O)COc2ccccc2C(=O)Nc2ccc3c(c2)oc2ccccc23)c(C)c1	0.77	3%	1	-1.7	-353	-1.1	0.1
CN(C)c1nc2c(c(=O)[nH]c(=O)n2C)n1Cc1ccc(F)cc1	0.73	-4%	2	0.8	4.6	-3.4	-0.1
COc1ccc(/C=C2/CCC(CN3CCOCC3)C2=O)cc1 (stereo unspecified)	.	1%	18	2.4	.	.	.
Cc1nn(Cc2cccc(C(=O)Nc3ccn(Cc4ccccc4)n3)c2)c(C)c1[N+](=O)[O-]	0.67	2%	0	-1.9	4.9	9.5	0.4
CCC(C)(CC(=O)Nc1nccs1)c1ccccc1 (stereo unspecified)	0.67	-12%	-8	3.3	1.0	0.0	1.1
O=C(CCc1nc(-c2ccccc2Cl)no1)NCc1ccco1	0.73	0%	-1	-2.2	0.0	7.0	0.3
C/C(=C\C(=O)c1ccc(Br)cc1)NCc1ccc2c(c1)OCO2	0.74	-11%	10	-3.4	-4.8	-4.4	0.8
COc1ccc(-c2cc(C(=O)NN)[nH]n2)cc1	0.68	?	9	-0.2	3.3	1.1	-0.5
CCOc1cc(C2c3c(n[nH]c3C)C(=O)N2c2ccc(Br)cc2)ccc1O (stereo unspecified)	0.74	-1%	1	1.6	0.3	2.3	1.8
CCOc1ccc(-n2c(C)c(C(=O)O)c3cc(OC)ccc32)cc1	0.61	.	-1	1.8	2.2	1.2	0.3
NS(=O)(=O)c1ccc(NC(=O)CN2C(=O)CCC2=O)cc1	0.67	-11%	4	1.4	1.5	-6.1	-0.8
COc1ccc(NC(=O)c2ccc(C)cc2)c[n+]1[O-]	0.68	-2%	0	4.9	5.8	3.6	0.0
COc1ccc2oc(C(=O)c3ccccc3)c(N)c2c1	0.72	1%	.	.	-7.9	3.1	-4.1
CN(c1ccc(OCC(=O)NC2CCC(O)CC2)cc1)S(=O)(=O)c1ccc(Cl)cc1 (stereo unspecified)	0.69	-3%	0	-4.2	-0.8	-2.5	15*
COc1ccc2c(c1)CCc1c(C(=O)NCc3ccc(Cl)cc3)noc1-2	0.73	24%	-7	3.3	-0.7	-0.1	0.6
COc1cc(OC)cc(-c2c(-c3cccs3)c3cc(-c4ccc(OC)cc4F)ccc3n2C)c1	0.76	.	-3	4.9	-12	-3.8	0.4
Brc1ccc(-c2noc(-c3ccccc3)n2)o1	0.7	.	2	-1.0	3.6	-1.8	-5.6
O=C(c1ccccc1F)N1CCN(S(=O)(=O)c2ccc3ccccc3c2)CC1	0.7	-5%	-5	-1.6	2.7	-0.1	1.3
CCNS(=O)(=O)c1cc(-c2nnc(OC)c3ccccc23)ccc1C	0.72	.	4	1.8	2.7	-4.2	-0.1
O=C(Oc1cccc(-n2cnnn2)c1)c1sc2ccccc2c1Cl	0.73	-9%	2	-3.1	0.4	1.9	0.0

Retrieved by structure from the list above, 5 records:
SMILES	Ecoli growth	Vif A3G	B2AR ag	HNF4A DNA FP	UCH37 DUB inh	LANA-H2A inh	Bfl-1 A1 inh
COc1cc(OC)cc(-c2c(-c3cccs3)c3cc(-c4ccc(OC)cc4F)ccc3n2C)c1	0.76	.	-3	4.9	-12	-3.8	0.4
O=C(CCc1nc(-c2ccccc2Cl)no1)NCc1ccco1	0.73	0%	-1	-2.2	0.0	7.0	0.3
Cc1nn(Cc2cccc(C(=O)Nc3ccn(Cc4ccccc4)n3)c2)c(C)c1[N+](=O)[O-]	0.67	2%	0	-1.9	4.9	9.5	0.4
O=C(Oc1cccc(-n2cnnn2)c1)c1sc2ccccc2c1Cl	0.73	-9%	2	-3.1	0.4	1.9	0.0
COc1ccc(NC(=O)c2ccc(C)cc2)c[n+]1[O-]	0.68	-2%	0	4.9	5.8	3.6	0.0

Additional records
SMILES	Ecoli growth	Vif A3G	B2AR ag	HNF4A DNA FP	UCH37 DUB inh	LANA-H2A inh	Bfl-1 A1 inh
O=C(Nc1cccc(S(=O)(=O)N2CCCCC2)c1)c1ccc2ccccc2n1	0.77	-2%	1	-1.7	-1.9	-1.4	0.4
O=C(/C=C/c1ccco1)N(Cc1cccc(Br)c1)C1CCS(=O)(=O)C1 (stereo unspecified)	0.67	?	-9	1.6	6.3	-1.3	0.9
COc1ccc(S(=O)(=O)N(C)C[C@H]2Oc3c(NS(=O)(=O)c4ccc(F)cc4)cccc3C(=O)N([C@H](C)CO)C[C@@H]2C)cc1	0.71	.	-9	-3.4	5.1	.	-0.2
O=C(O)Cn1c(-c2cscn2)nc2ccccc21	0.73	?	9	-0.3	1.0	-2.2	0.2
COc1ccccc1C(=O)N1CCN(Cc2cn[nH]c2-c2ccc(F)cc2F)CC1	0.71	-5%	-13	-3.5	0.1	-1.2	0.2
O=C(C1=C(O)C(=O)N(c2ncccn2)C1c1ccc(F)cc1)c1ccco1 (stereo unspecified)	0.68	9%	3	1.8	8.5	4.3	-0.2
Cc1cnc(NC(=O)c2cccc(S(=O)(=O)N3CC(C)OC(C)C3)c2)s1 (stereo unspecified)	0.69	1%	-23	-1.8	1.5	7.2	0.6
COc1ccc(NC(=O)N2CCN(C(=O)Nc3ccc(OC)cc3)CC2)cc1	0.69	-3%	0	3.0	5.2	-9.3	-0.6
O=C(COC(=O)c1ccccc1O)NCCC1=CCCCC1	0.66	5%	3	2.0	2.1	-1.9	0.0
COc1ccc2c(Cl)c(-c3nnc(SCC(=O)c4ccccc4)n3C)sc2c1	0.79	1%	-15	0.1	1.2	4.5	-0.5
CN(CCC#N)C(=O)COC(=O)c1ccc(CNS(=O)(=O)c2ccc(F)c(Cl)c2)cc1	0.71	22%	5	0.8	4.2	11	0.2
COc1ccccc1C(=O)COC(=O)c1ccccc1O	0.62	-5%	12	4.2	-2.9	-1.3	0.4
CCOC(=O)c1sc(NC(=O)c2ccc(S(=O)(=O)N3CCCCCC3)cc2)nc1-c1ccccc1	0.66	-61%	5	2.0	-81	-3.4	1.5
O=C(O)c1cccc(S(=O)(=O)N2CC=C(c3ccccc3)CC2)c1	0.69	3%	3	2.8	0.6	-0.9	0.8
CCC(Sc1nc(-c2ccccc2)c(-c2ccccc2)[nH]1)C(=O)O (stereo unspecified)	0.66	-2%	-2	-3.6	-11	-2.4	0.8
O=[N+]([O-])c1cc2c(cc1CN1CCN(c3ccc(F)cc3)CC1)OCO2	0.6	.	13	0.4	1.0	-0.3	-0.8
O=C(O)c1ccc(N2C(=O)c3ccc(C(=O)c4cccc([N+](=O)[O-])c4)cc3C2=O)cc1	0.71	-2%	-4	2.3	3.5	-2.0	0.0
CC(=O)Nc1ccc(Nc2cc(C)nc(Nc3ccc(NC(C)=O)cc3)n2)cc1	0.65	.	0	-0.1	0.0	-0.4	-0.2
O=C(Cn1cc(C(F)(F)F)ccc1=O)N1CCc2ccccc21	0.66	.	-10	-3.9	0.7	-7.4	0.4
O=c1c2[nH]c3cccc(Cl)c3c2ncn1CCN1CCCCC1	0.68	?	-6	-0.8	-7.3	1.7	0.1

The last 2 records of the part before open the next one:
SMILES	Ecoli growth	Vif A3G	B2AR ag	HNF4A DNA FP	UCH37 DUB inh	LANA-H2A inh	Bfl-1 A1 inh
O=C(Cn1cc(C(F)(F)F)ccc1=O)N1CCc2ccccc21	0.66	.	-10	-3.9	0.7	-7.4	0.4
O=c1c2[nH]c3cccc(Cl)c3c2ncn1CCN1CCCCC1	0.68	?	-6	-0.8	-7.3	1.7	0.1
CC(=O)Oc1cc2c(C(=O)NCCCN3CCOCC3)c(C)oc2c2ccccc12	0.79	-4%	10	-0.3	14	0.0	0.3
O=C(COc1ccccc1Cl)NNC(=O)c1ccc2nc[nH]c2c1	.	.	4	-2.8	.	-2.6	0.0
CCCn1c(C2CCCN2c2nc(-c3cccc(Br)c3)cs2)nc2cc(Cl)c(Cl)cc21 (stereo unspecified)	0.71	.	0	-1.7	-1.4	0.7	-1.6
COC(=O)c1ccc(NC(=O)Cn2nc(SC)n(N)c2=S)cc1	0.74	-3%&22%	-3	1.6	1.8	-3.1	-0.2
CCn1c(=O)c2cc(C(=O)Nc3cc(C)on3)sc2c2ccccc21	0.8	-9%	-6	11	-23	-3.4	-0.3
O=C1CCCCC1(O)Cc1ccc2c(c1)OCO2 (stereo unspecified)	0.68	-1%	9	-1.4	1.2	.	.
COc1cccc(C#Cc2c(C=O)n(C)c3ccccc23)c1	.	.	17	1.6	.	0.8	0.9
NC(=O)CC[C@@H]1NC(=O)[C@H](CO)NC(=O)c2cc([N+](=O)[O-])cc(I)c2OCC[C@@H](C(N)=O)NC1=O	.	?	-13	1.8	-0.1	1.9	0.1
CCC(C)NCc1ccc(C(=O)OC)o1 (stereo unspecified)	0.67	-1%	2	-5.4	0.9	1.3	1.1
C/C(=N\NC(=O)c1ccc(Cl)c(Cl)c1)c1cccc(NC(=O)C(C)C)c1	.	-1%	-3	-1.4	.	2.9	-1.6
C[C@H](NC(=O)Cc1ccccc1)C(=O)N1CCC2(CC1)NCCc1[nH]cnc12	0.64	.	3	-3.6	-0.7	6.2	0.4
COc1ccc(C2CC(c3ccc([N+](=O)[O-])cc3)=NN2C(C)=O)cc1 (stereo unspecified)	.	-9%	-13	-2.3	.	5.9	-0.1
CCOC(=O)c1ccc(NC(=S)Nc2cccc(N)n2)cc1	0.65	14%	7	0.8	0.6	-0.4	-0.5
CCCN1CCC(NC(=O)C2CCCCC2C(=O)O)CC1 (stereo unspecified)	0.71	.	0	-0.1	0.2	-0.5	0.9
O=C1COc2ccc(S(=O)(=O)Nc3ccc(OC(F)(F)F)cc3)cc2N1	0.69	.	2	2.3	5.7	.	.
CC(=O)NC(CC(=O)NC1CCCc2ccccc21)c1ccccc1 (stereo unspecified)	0.67	1%	7	-3.0	1.4	2.5	-0.8
COc1ccc(C(C#N)=Cc2ccc(NC(C)=O)cc2)cc1	0.68	-15%	-2	-2.0	-93	.	.
Cc1ccc(S(=O)(=O)NN2C(=O)/C(=C/c3ccc(F)cc3)SC2=S)cc1	0.62	-10%	-1	-3.6	6.7	5.6	-0.2
O=C(c1cnsn1)N1CCCC(Nc2ccc(F)c(F)c2)C1 (stereo unspecified)	0.66	.	1	-1.0	-0.8	.	.
COc1ccc(CCNCC(=O)Nc2ccc(C)c(S(=O)(=O)N(C)C)c2)cc1	0.65	?	2	5.1	0.7	-4.5	0.2
CCC(C(=O)NCc1ccc(C)cc1)c1ccccc1 (stereo unspecified)	0.67	.	-4	1.7	0.7	-4.3	0.7
Cc1ccc(SCc2cc(=O)[nH]c(Nc3nc(C)c4ccc(C)cc4n3)n2)cc1	0.74	0%	-6	-1.1	5.7	3.6	0.0
Cc1ccc(C)c(CNS(=O)(=O)c2ccc3c(c2)C(C)(C)C(=O)N3C)c1	0.71	.	2	-0.8	2.7	-1.5	-0.1
COc1cccc(-c2cc(C(=O)N3CCN(Cc4ccccc4)CC3)no2)c1	0.66	?	3	3.0	1.5	-2.4	-0.7
Cc1c(NC(=O)C2CCCO2)cccc1[N+](=O)[O-] (stereo unspecified)	0.7	.	-6	1.6	2.3	-1.7	0.1
CC(Sc1nnc2n1CCCCC2)C(=O)Nc1ccccc1[N+](=O)[O-] (stereo unspecified)	0.68	.	-2	0.1	4.0	-0.4	-0.4
O=C(NNC(=O)C1CCCCC1)c1ccco1	0.68	7%	2	7.0	4.2	1.1	-0.5

Compound activity deposited in PubChem by several laboratories.
